T. gondii = Toxoplasma gondii ME49Luc growth in HeLa cells, luciferase, no IFN-y, primary screen (AID 1259421). 6,400 compounds, 9.6% hits. activity change, negative = inhibition, %. T. gondii ME49Luc in HeLa, luciferase, 72 h, no IFN-y; stronger effect = lower value; reference of the scale and settings of repeat entries not given here; many of its hits are not listed in these tables;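 active = activity change below -70%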;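 also: about 20 µM from a 10 mM stock diluted 500-fold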
Starred values were filed as active, the others as inactive; & = joins results of further samples; ! = not active in a repeat.

`CC(C)c1ccc(NC(=O)Cn2cnc3c2c(=O)n(C)c(=O)n3C)cc1` gave T. gondii 11.
COC(=O)C1=C(C)NC(C)=C([N+](=O)[O-])[C@H]1c1ccccc1C(F)(F)F was read as T. gondii 21.
CC(=O)O[C@@H]1CC2C(C)(C)C(=O)CC[C@]2(C)C2CC[C@@]3(C)[C@H](c4ccoc4)OC(=O)C4OC43[C@@]21C (some centres undefined) was read as T. gondii 21.
`CCOC(=O)NCC(Cc1ccc(OCCc2nc(-c3ccccc3)oc2C)cc1)N/C(C)=C/C(=O)c1ccc(C(F)(F)F)cc1` (centres undefined) gave T. gondii -50.
For CN1CCN(CCc2ccc(Cl)c(Cl)c2)CC1 the results were T. gondii -6&-10.
Screening Cc1c(N(C)CS(=O)(=O)O)c(=O)n(-c2ccccc2)n1C returned T. gondii 6.
Screening Cc1ccc(/C=C2\C(=O)C3(C)CCC2C3(C)C)cc1 (centres undefined) returned T. gondii 2.
`C=CC(C)(O)CC[C@@H]1[C@@]2(C)CCCC(C)(C)C2CC[C@@]1(C)O` (some centres undefined) gave T. gondii 13.
For CSc1cc2c(cc1C(F)(F)F)N(C(=O)Nc1cccnc1)CC2 the results were T. gondii -6&-24.
Screening O=[Si]=O returned T. gondii 11.
`Clc1ccc(CCCOCCCN2CCCCC2)cc1` gave T. gondii 2.
Screening Cc1cc(=O)oc2c(C=O)c(O)ccc12 returned T. gondii 17.
`Fc1ccc2c(CCNCc3cccc(OCC(F)(F)C(F)F)c3)c[nH]c2c1` gave T. gondii 38.
Screening CCCCCCCCCC(=O)N[C@@H](Cc1c[nH]c2ccccc12)C(=O)N[C@H](CC(N)=O)C(=O)N[C@@H](CC(=O)O)C(=O)N[C@@H]1C(=O)NCC(=O)N[C@@H](CCCN)C(=O)N[C@@H](CC(=O)O)C(=O)N[C@H](C)C(=O)N[C@@H](CC(=O)O)C(=O)NCC(=O)N[C@H](CO)C(=O)N[C@@H]([C@@H](C)CC(=O)O)C(=O)N[C@@H](CC(=O)c2ccccc2N)C(=O)O[C@@H]1C returned T. gondii 5.
For Cc1sc[n+](CC(=O)c2ccccc2)c1C the results were T. gondii 61.
COc1ccccc1N1CCN(CC(C(=O)NC(C)(C)C)c2ccccc2)CC1 (centres undefined) was read as T. gondii 6.
For C/C(=N\NC(=O)[C@@H]1C(=O)NC[C@H]1c1ccccc1)c1cccc(Br)c1 the results were T. gondii 1.
Screening CN(C)CCC(c1ccccc1)c1ccccn1 (centres undefined) returned T. gondii 7&4.
Screening C=CC(=O)Nc1cccc(Oc2nc(Nc3ccc(N4CCN(C)CC4)cc3)ncc2Cl)c1 returned T. gondii -59.
`Cc1oc(=O)oc1COC(=O)C1=C([C@H]2CCCO2)S[C@@H]2[C@@H]([C@@H](C)O)C(=O)N12` gave T. gondii 17.
Screening C[C@]12CCC(=O)C=C1C=CC1C2CC[C@@]2(C)C1CC[C@@]21CCC(=O)O1 (some centres undefined) returned T. gondii -5&5.
`O=[N+]([O-])c1nccn1CC(O)CN1CCCCC1` (centres undefined) gave T. gondii -1.
For CCCCCCC(=O)OC1CC(C)(C)NC(C)(C)C1 the results were T. gondii -3&11.
`CCCn1c(=O)c2[nH]c(-c3ccccc3)nc2n(CCC)c1=O` gave T. gondii -8&17.
Screening CCOC(=O)C(C)(C)Oc1ccc(Cl)cc1 returned T. gondii 14.
`CCCS(=O)(=O)Nc1ccc(F)c(C(=O)c2c[nH]c3ncc(Cl)cc23)c1F` gave T. gondii -26.
COc1ccc(C2(C#N)CCC(C(=O)O)CC2)cc1OC1CCCC1 (centres undefined) was read as T. gondii 22.
`C[C@H]1COc2c(C3(N)CC3)c(F)cc3c(=O)c(C(=O)O)cn1c23` gave T. gondii 14.
Screening O=C(O)c1ccc(-c2ccc3cc(O)c(C45CC6CC(CC(C6)C4)C5)cc3c2)cc1 returned T. gondii -3.
Screening Cc1ccc2c(c1)C(=O)C1(O)CCN(c3ccccc3)C1=N2 (centres undefined) returned T. gondii 13.
For Oc1ccc2ccccc2c1Cc1c(O)ccc2ccccc12 the results were T. gondii 3.
For CN(C)CCOC(c1ccc(Cl)cc1)c1ccccn1 (centres undefined) the results were T. gondii 7&8.
Screening CC1(O)C(O)C(CO)OC1n1cnc2c(NC3CCCC3)nc(Cl)nc21 (centres undefined) returned T. gondii 13.
`CC1CCN(CC[C@H]2CCCN2S(=O)(=O)c2cccc(O)c2)CC1` gave T. gondii 6&-29.
Screening Cn1cnc([N+](=O)[O-])c1Sc1ncnc2nc[nH]c12 returned T. gondii -74*!.
For NC(=O)/N=N/C(N)=O the results were T. gondii 7.
For N=C(N)SCCc1ccc(OCc2ccc([N+](=O)[O-])cc2)cc1 the results were T. gondii 68&-14.
COc1ccc(N2CCOCC2)c2sc(NC(=O)N3CCC(C)(O)CC3)nc12 was read as T. gondii 12.
`Cc1cccc(C)c1NC(=O)CN1CCN(CCCC(c2ccc(F)cc2)c2ccc(F)cc2)CC1` gave T. gondii 7.
`CCCCOc1ccc(C(=O)Nc2ccc(F)cc2F)cc1` gave T. gondii 198.
Screening Clc1ccc2c(N3CCN(CCCN4CCN(c5ccnc6cc(Cl)ccc56)CC4)CC3)ccnc2c1 returned T. gondii 1.
C[C@]12CCC(=O)C=C1[C@@H]1C[C@@H]1[C@H]1[C@@H]3[C@@H]4C[C@@H]4[C@@]4(CCC(=O)O4)[C@@]3(C)CC[C@@H]12 was read as T. gondii -76*!.
Screening CC1(C)C(=O)N=C2c3ccccc3C(=O)C(=O)C21 (centres undefined) returned T. gondii -89*.
CCCCOc1c(C(=O)c2c(F)cc(C)cc2F)cnc2n[nH]cc12 was read as T. gondii -88*.
For COc1cc2c(CCNC(C)=O)c[nH]c2cc1Cl the results were T. gondii 10&17.
`Oc1c(I)cc(I)c2cccnc12` gave T. gondii -77*!.
NC(=O)CC[C@H](NC(=O)Cc1ccccc1)C(=O)O was read as T. gondii 16.
CCCCC/C=C\C/C=C\C/C=C\C/C=C\CCCC(=O)O was read as T. gondii 12.
For CCCCCCCCCCCCCCCCn1cc[n+](Cc2ccccc2)c1C the results were T. gondii -86*.
`CO[C@@H]1[C@@H](O[C@@H]2O[C@H](C)[C@@H](O[C@H]3C[C@@](C)(O)[C@H](O)[C@H](C)O3)[C@H](N(C)C)[C@H]2O)[C@@H](CC=O)C[C@@H](C)[C@@H](O[C@H]2CC[C@H](N(C)C)[C@@H](C)O2)/C=C/C=C/C[C@H](C)OC(=O)C[C@H]1O` gave T. gondii 5.
Screening O=C(O)Cc1nn(Cc2nc3cc(C(F)(F)F)ccc3s2)c(=O)c2ccccc12 returned T. gondii 19.
`Cc1ccc(CCCO)c(NCc2ccc3nc(NCCCN4CCOCC4)n(Cc4nc(C)ccc4O)c3c2)c1` gave T. gondii 3.
O=C(c1ccc2c(c1)OCO2)N1CCCCC1 was read as T. gondii 0&13.
`Cc1ccc2c(c1)c1c(n2CCc2ccc(C)nc2)CCN(C)C1` gave T. gondii 7.
`COc1ccc(S(=O)(=O)N2CCCN(S(=O)(=O)c3ccc(OC)c(OC)c3)CC2)cc1OC` gave T. gondii 0.
For CC(C)CN(C[C@@H](OP(=O)(O)O)[C@H](Cc1ccccc1)NC(=O)O[C@H]1CCOC1)S(=O)(=O)c1ccc(N)cc1 the results were T. gondii -5.
CC(CCc1ccc(O)cc1)NCCc1ccc(O)c(O)c1 (centres undefined) was read as T. gondii 10.
`CCCCc1ncc(/C=C(\Cc2cccs2)C(=O)O)n1Cc1ccc(C(=O)O)cc1` gave T. gondii 25.
CN1[C@@H](CC(=O)c2ccccc2)CCC[C@H]1C[C@H](O)c1ccccc1 was read as T. gondii 2.
Screening O=C(O)Cn1c(C(=O)Nc2nc(-c3ccccc3Cl)cs2)cc2ccccc21 returned T. gondii 3&19.

For convenience, 2 of the compounds above.
Screening Clc1ccc2c(N3CCN(CCCN4CCN(c5ccnc6cc(Cl)ccc56)CC4)CC3)ccnc2c1 returned T. gondii 1.
C[C@]12CCC(=O)C=C1[C@@H]1C[C@@H]1[C@H]1[C@@H]3[C@@H]4C[C@@H]4[C@@]4(CCC(=O)O4)[C@@]3(C)CC[C@@H]12 was read as T. gondii -76*!.

Remaining list, next part
CN1CCCC(n2nc(Cc3ccc(Cl)cc3)c3ccccc3c2=O)CC1 (centres undefined) was read as T. gondii 11&8.
`CC(=O)O[C@@H]1CC2C(C)(C)C(=O)C3OC3[C@]2(C)C2CC[C@@]3(C)[C@H](c4ccoc4)OC(=O)C4OC43[C@@]21C` (some centres undefined) gave T. gondii 26.
Screening C[C@@H](CN1CCC(n2c(=O)[nH]c3cc(Cl)ccc32)CC1)NC(=O)c1ccc2ccccc2c1 returned T. gondii -48.
CN(C)[C@@H]1CCc2[nH]c3ccc(NC(=O)c4ccc(F)cc4)cc3c2C1 was read as T. gondii 7&0.
For O=C(O)c1ccc(NC2OC(CO)C(O)C(O)C2O)cc1 (centres undefined) the results were T. gondii 4.
`NC(N)=NC(N)=Nc1ccccc1` gave T. gondii 9&8.
Screening C[C@@H](NCCCc1cccc(C(F)(F)F)c1)c1cccc2ccccc12 returned T. gondii 58.
CC(=O)c1ccc2c(c1)[C@@H]1C=CC[C@@H]1[C@H](c1cc3c(cc1Br)OCO3)N2 was read as T. gondii -80*.
O=C1c2ccccc2C(Cc2ccnc(F)c2)(Cc2ccnc(F)c2)c2ccccc21 was read as T. gondii 12&22.
`CCC[C@H](NC(=O)/C(C#N)=C/c1cccc(Br)n1)c1ccccc1` gave T. gondii -77*.
`Nc1cc(Nc2ccc(S(N)(=O)=O)cc2)ncn1` gave T. gondii 15.
Screening CCNC(=O)[C@H]1O[C@@H](n2cnc3c(N)nc(NCCc4ccc(CCC(=O)O)cc4)nc32)[C@@H](O)[C@@H]1O returned T. gondii 10.
Screening O=c1c2c(c1=O)N(CCP(=O)(O)O)CCCN2 returned T. gondii 4.
O=C(O)CCC/C=C\C[C@@H]1CO[C@H](C(F)(F)F)O[C@@H]1c1ccccc1O was read as T. gondii -11&21.
`COc1cc2c3cc1Oc1cc(ccc1O)C[C@@H]1c4c(cc(OC)c(O)c4Oc4ccc(cc4)C[C@@H]3N(C)CC2)CC[N+]1(C)C` gave T. gondii 1&4.
COCc1cc(O)c(O)c(O)c1-c1c(COC)cc(O)c(O)c1O was read as T. gondii 5.
Screening C[C@@]1(O)[C@H](O)[C@@H](CO)O[C@H]1n1cnc2c(NC3CCCC3)nc(Cl)nc21 returned T. gondii 15.
`CS/C(N)=C(C#N)/C(C#N)=C(\N)SC` gave T. gondii 0&2.
`CC1(C)C2CC[C@]3(C)[C@H](C(=O)C=C4[C@@H]5C[C@@](C)(C(=O)O)CC[C@]5(C)CC[C@]43C)[C@@]2(C)CC[C@@H]1OC(=O)CCC(=O)O` (some centres undefined) gave T. gondii 4&6.
O=C(c1ccc(Nc2nccc(-c3cc4ccccc4s3)n2)cc1)N1CCC(N2CCCC2)CC1 was read as T. gondii -80*.
Screening CC1=CC(=O)C(C(C)C)=CC1=O returned T. gondii -13.
Screening Nc1nc(Cl)nc2c1ncn2C1OC(CO)C(O)C1F (centres undefined) returned T. gondii -88*.
Screening CN[C@@H](C)C(=O)N[C@H](C(=O)N1CCC[C@H]1C(=O)Nc1snnc1-c1ccccc1)C1CCCCC1 returned T. gondii 7.
For Cc1cc(S(=O)(=O)O)c2c(C)ccc(C(C)C)cc1-2 the results were T. gondii 1.
`CC(=O)[C@@]12O[C@](C)(c3ccccc3)O[C@@H]1CC1C3CCC4=CC(=O)CC[C@]4(C)C3CC[C@@]12C` (some centres undefined) gave T. gondii -11.
For O=S(=O)(c1ccccc1)N(CC(F)(F)F)c1ccc(C(O)(C(F)(F)F)C(F)(F)F)cc1 the results were T. gondii 19&-25.
O=C(/C=C/c1ccc(O)c(O)c1)O[C@@H]1C[C@](OC(=O)/C=C/c2ccc(O)c(O)c2)(C(=O)O)C[C@@H](O)[C@H]1O was read as T. gondii 2.

In the list so far, 14 have a COOH group.
Screening CCCCCCCCCC(=O)N[C@@H](Cc1c[nH]c2ccccc12)C(=O)N[C@H](CC(N)=O)C(=O)N[C@@H](CC(=O)O)C(=O)N[C@@H]1C(=O)NCC(=O)N[C@@H](CCCN)C(=O)N[C@@H](CC(=O)O)C(=O)N[C@H](C)C(=O)N[C@@H](CC(=O)O)C(=O)NCC(=O)N[C@H](CO)C(=O)N[C@@H]([C@@H](C)CC(=O)O)C(=O)N[C@@H](CC(=O)c2ccccc2N)C(=O)O[C@@H]1C returned T. gondii 5.
COc1ccc(C2(C#N)CCC(C(=O)O)CC2)cc1OC1CCCC1 (centres undefined) was read as T. gondii 22.
`C[C@H]1COc2c(C3(N)CC3)c(F)cc3c(=O)c(C(=O)O)cn1c23` gave T. gondii 14.
Screening O=C(O)c1ccc(-c2ccc3cc(O)c(C45CC6CC(CC(C6)C4)C5)cc3c2)cc1 returned T. gondii -3.
NC(=O)CC[C@H](NC(=O)Cc1ccccc1)C(=O)O was read as T. gondii 16.
CCCCC/C=C\C/C=C\C/C=C\C/C=C\CCCC(=O)O was read as T. gondii 12.
Screening O=C(O)Cc1nn(Cc2nc3cc(C(F)(F)F)ccc3s2)c(=O)c2ccccc12 returned T. gondii 19.
`CCCCc1ncc(/C=C(\Cc2cccs2)C(=O)O)n1Cc1ccc(C(=O)O)cc1` gave T. gondii 25.
Screening O=C(O)Cn1c(C(=O)Nc2nc(-c3ccccc3Cl)cs2)cc2ccccc21 returned T. gondii 3&19.
For O=C(O)c1ccc(NC2OC(CO)C(O)C(O)C2O)cc1 (centres undefined) the results were T. gondii 4.
Screening CCNC(=O)[C@H]1O[C@@H](n2cnc3c(N)nc(NCCc4ccc(CCC(=O)O)cc4)nc32)[C@@H](O)[C@@H]1O returned T. gondii 10.
O=C(O)CCC/C=C\C[C@@H]1CO[C@H](C(F)(F)F)O[C@@H]1c1ccccc1O was read as T. gondii -11&21.
`CC1(C)C2CC[C@]3(C)[C@H](C(=O)C=C4[C@@H]5C[C@@](C)(C(=O)O)CC[C@]5(C)CC[C@]43C)[C@@]2(C)CC[C@@H]1OC(=O)CCC(=O)O` (some centres undefined) gave T. gondii 4&6.
O=C(/C=C/c1ccc(O)c(O)c1)O[C@@H]1C[C@](OC(=O)/C=C/c2ccc(O)c(O)c2)(C(=O)O)C[C@@H](O)[C@H]1O was read as T. gondii 2.

Compound activity: PubChem, Broad Institute

Some of the compounds tested, so the mix of outcomes need not match the whole.
